Mtb H37Rv: M. tuberculosis H37Rv growth inhibitors, H37Rv strain (AID 1626); M. tuberculosis H37Rv growth inhibition; higher % means a stronger effect; inhibition, % at 10 µM, or IC50 in µM where a hit was titrated; hit rate 0.95% among 220,000;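 active = confirmed in a dose series; inconclusive = inhibition above 80% but not taken into the dose series; inactive = below 80% or under 30% at every dose of the series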;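 also: bacteria incubated seven days before Alamar blue readout; 0% = bacteria only wells and 100% = bacteria with antibiotic wells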
RecA splice inh: Mtb RecA intein splicing inhibition; P9WHJ3; cell-free RecA intein splicing, fluorescence; inhibition, %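 (about 9 µM by stock and volumes)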; hit rate 0.75% among 290,000; AID 2221; in the data active = inhibition above about 30%; inconclusive = no clear call, values can overlap the other calls;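 also: 0% = vehicle wells and 100% = reference inhibitor control wells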
Target sequence (P9WHJ3 whole entry, looked up, canonical isoform): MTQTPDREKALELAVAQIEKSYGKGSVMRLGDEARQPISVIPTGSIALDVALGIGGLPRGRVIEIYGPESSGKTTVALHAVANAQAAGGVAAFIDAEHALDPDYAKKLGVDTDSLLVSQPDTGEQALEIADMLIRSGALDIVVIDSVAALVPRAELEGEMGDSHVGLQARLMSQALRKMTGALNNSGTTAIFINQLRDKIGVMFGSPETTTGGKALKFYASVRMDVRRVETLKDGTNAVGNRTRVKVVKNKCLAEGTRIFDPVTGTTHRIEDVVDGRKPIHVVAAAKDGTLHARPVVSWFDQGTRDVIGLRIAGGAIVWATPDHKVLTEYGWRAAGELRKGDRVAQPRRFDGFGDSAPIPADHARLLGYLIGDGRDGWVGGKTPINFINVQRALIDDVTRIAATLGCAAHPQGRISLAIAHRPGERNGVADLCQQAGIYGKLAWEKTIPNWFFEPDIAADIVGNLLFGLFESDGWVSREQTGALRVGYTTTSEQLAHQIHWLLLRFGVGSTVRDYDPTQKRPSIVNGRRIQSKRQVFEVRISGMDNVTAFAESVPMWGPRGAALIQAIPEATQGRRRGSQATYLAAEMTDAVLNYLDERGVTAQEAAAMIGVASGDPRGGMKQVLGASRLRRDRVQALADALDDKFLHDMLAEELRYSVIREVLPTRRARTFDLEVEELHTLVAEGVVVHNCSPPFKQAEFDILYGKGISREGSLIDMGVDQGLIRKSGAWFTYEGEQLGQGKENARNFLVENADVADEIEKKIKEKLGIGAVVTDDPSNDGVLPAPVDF
Arbovirus inh: blocks arbovirus infection. inhibition, % at 10 µM. hit rate 0.37% among 200,000. AID 1251. arbovirus infection cell-based antiviral screen;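 active = inhibition from about 30%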;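 also: bluetongue infection of BSR cells; cell survival read as ATP light after 72 h; 0% = infected wells without compound and 100% = uninfected wells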
YopH PTP inh: blocks Yersinia enterocolitica YopH tyrosine phosphatase. fluorescence Ex485/Em525. inhibition, %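 (about 10 µM by stock and volumes)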. hit rate 0.16% among 140,000. AID 898;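 active = inhibition of 50% or more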;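 also: controls were vehicle for no effect and minimum signal wells for full effect; inactives centre near -20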
Mtb bLac sens: beta-lactam sensitization of Mtb H37Rv. AID 434955. M. tuberculosis H37Rv growth with meropenem, percent inhibition; hits of this screen are not shown here. hit rate 0.27% among 330,000. inhibition, % at 25 µM;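 active = about 74% or more and at least 40 points above the plate without the antibiotic, then above 30% in a dose series; inconclusive = first-round hits that could not be retested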;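 also: growth measured after seven days incubation then overnight dye step; 0% = bacteria only wells and 100% = bacteria with antibiotic; twin plates without the antibiotic show which effects depend on it; some results filed as inactive read as strong as hits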
Arbovirus inh repeat: recorded beside Arbovirus inh, whose call it bears; inhibition, %; measured here: 10K subset replicate screen; many hits read low in the repeat;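 first of two repeat runs on a subset; 0% = infected and 100% = uninfected wells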
Active calls of the source: *. The list is partial, so the mix of outcomes need not match the whole.

How did CC1=C(C#N)C(NC(=O)C2CCCCC2)(C(F)(F)F)C(=O)N1 (stereo unspecified) do in these assays?
Mtb H37Rv: 2%; RecA splice inh: -0.5; Arbovirus inh: 2; YopH PTP inh: -11; Mtb bLac sens: -4

Results for CCn1c(=O)cc(SCC(=O)Nc2cc(OC)c(OC)c(OC)c2)c2ccccc21 ?
Mtb H37Rv: -4%; RecA splice inh: 5.6; Arbovirus inh: -6; YopH PTP inh: 24; Mtb bLac sens: -7

What do the screens show for `CCc1c(C)c(C#N)c2nc3ccccc3n2c1NCc1ccco1`?
Mtb H37Rv: 6%; RecA splice inh: -38; Arbovirus inh: -1; YopH PTP inh: -13; Mtb bLac sens: 36

What do the screens show for `Nc1n[nH]c(C2CCCCC2)n1`?
Mtb H37Rv: -2%; RecA splice inh: 1.4; Arbovirus inh: -5; Mtb bLac sens: 7

How did O=C(CSc1nnc(-c2cccs2)n1-c1ccccc1)N1CCCc2ccccc21 do in these assays?
Mtb H37Rv: 3%; RecA splice inh: 0.2; Arbovirus inh: 6; YopH PTP inh: -8; Mtb bLac sens: 12

What do the screens show for `COc1ccc(C(=O)Nc2ccc(NC(=O)c3cccs3)c(OC)c2)cc1Cl`?
Mtb H37Rv: 6%; RecA splice inh: -5.3; Arbovirus inh: -7; Mtb bLac sens: 11

Results for Cc1ccc(C(=O)O)cc1NC(=S)NC(=O)c1ccc(-c2ccccc2)cc1 ?
Mtb H37Rv: 4%; RecA splice inh: 2.6; Arbovirus inh: 17; Mtb bLac sens: 6

How did NC(=O)c1cnn(C2CCS(=O)(=O)C2)c1 (stereo unspecified) do in these assays?
Mtb H37Rv: 6%; RecA splice inh: 0.1; Arbovirus inh: 3; Mtb bLac sens: -13

How did Cc1cc(C)cc(NC(=O)CNC(c2ccccc2)c2ccccc2)c1 do in these assays?
RecA splice inh: 15; Mtb bLac sens: 5

What do the screens show for `COc1ccc(C(=O)NNC2=NC(C)(C)Cc3ccccc32)cc1`?
Mtb H37Rv: -1%; RecA splice inh: 1.2; Arbovirus inh: 9; YopH PTP inh: -27; Mtb bLac sens: 7

How did Cn1nccc1C(=O)Nc1ccc2c(c1)OCCO2 do in these assays?
Mtb H37Rv: 2%; RecA splice inh: 1.8; Arbovirus inh: 3; Mtb bLac sens: 1

What do the screens show for `CCN(CC)c1nc2c(c(=O)[nH]c(=O)n2C)n1Cc1ccccc1`?
RecA splice inh: 0.3; Mtb bLac sens: 4

How did Cc1csc(SCc2nc3scc(-c4ccccc4)c3c(=O)[nH]2)n1 do in these assays?
Mtb H37Rv: -6%; RecA splice inh: 5.0; Arbovirus inh: 3; Mtb bLac sens: -7

Results for O=C(CNC(=O)c1ccc(Cl)cc1Cl)OCN1C(=O)c2ccccc2C1=O ?
RecA splice inh: -0.2; Mtb bLac sens: -5

How did CCCCn1cnc2c(c(-c3ccccc3)c(-c3ccccc3)n2Cc2ccco2)c1=N do in these assays?
Mtb H37Rv: inconclusive; RecA splice inh: 28; Mtb bLac sens: 100

Results for COc1ccccc1OCCn1ccnc1 ?
RecA splice inh: 1.3; Mtb bLac sens: -5

What do the screens show for `O=C(CCNC(=O)c1ccccc1Cl)Nc1nc(-c2ccccc2Cl)cs1`?
Mtb H37Rv: 5%; RecA splice inh: 5.3; Arbovirus inh: 3; YopH PTP inh: 4; Mtb bLac sens: 7

How did Cc1ccc(-c2nc(CS(=O)CC(=O)NCc3ccc4c(c3)OCO4)c(C)o2)cc1 (stereo unspecified) do in these assays?
RecA splice inh: 1.9; Mtb bLac sens: -3

How did CC1(C)Cc2c(sc(NC(=O)COc3ccc(Cl)cc3)c2C(N)=O)C(C)(C)N1 do in these assays?
RecA splice inh: -1.5; Mtb bLac sens: 2

What do the screens show for `O=[N+]([O-])c1cc(/C=N/n2c(-c3cccnc3)n[nH]c2=S)ccc1Cl`?
Mtb H37Rv: 3%; RecA splice inh: -0.7; Arbovirus inh: -6; YopH PTP inh: -23; Mtb bLac sens: 2

Of the compounds above, these have an NH in an aromatic ring.
What do the screens show for `Nc1n[nH]c(C2CCCCC2)n1`?
Mtb H37Rv: -2%; RecA splice inh: 1.4; Arbovirus inh: -5; Mtb bLac sens: 7

What do the screens show for `CCN(CC)c1nc2c(c(=O)[nH]c(=O)n2C)n1Cc1ccccc1`?
RecA splice inh: 0.3; Mtb bLac sens: 4

How did Cc1csc(SCc2nc3scc(-c4ccccc4)c3c(=O)[nH]2)n1 do in these assays?
Mtb H37Rv: -6%; RecA splice inh: 5.0; Arbovirus inh: 3; Mtb bLac sens: -7

What do the screens show for `O=[N+]([O-])c1cc(/C=N/n2c(-c3cccnc3)n[nH]c2=S)ccc1Cl`?
Mtb H37Rv: 3%; RecA splice inh: -0.7; Arbovirus inh: -6; YopH PTP inh: -23; Mtb bLac sens: 2

Later entries.
What do the screens show for `Cc1cc(C)c(S(=O)(=O)NC2CC(C)(C)NC(C)(C)C2)cc1Br`?
RecA splice inh: -0.4; Mtb bLac sens: -1

What do the screens show for `Cc1n[nH]c(C)c1S(=O)(=O)N1CCCCCC1`?
Mtb H37Rv: 4%; RecA splice inh: -0.9; Arbovirus inh: 7; YopH PTP inh: -11; Mtb bLac sens: 7

What do the screens show for `CC(C)CC(C(=O)OCC(=O)c1c(N)n(C)c(=O)n(C)c1=O)N1C(=O)c2ccccc2C1=O` (stereo unspecified)?
Mtb H37Rv: -1%; RecA splice inh: 0.3; Arbovirus inh: -2; YopH PTP inh: -21; Mtb bLac sens: 0

Results for O=C(CC(=O)c1ccccc1)Nc1cc(C(F)(F)F)ccc1Cl ?
Mtb H37Rv: 4%; RecA splice inh: -0.9; Arbovirus inh: 6; YopH PTP inh: -21; Mtb bLac sens: -5

Results for Nc1cc(=O)[nH]n1C1CCCC1 ?
Mtb H37Rv: 1%; RecA splice inh: 5.6; Arbovirus inh: 2; Mtb bLac sens: -2

Results for Cn1ccsc1=NC(=O)c1ccc(S(=O)(=O)C(F)F)cc1 ?
RecA splice inh: -3.0; Mtb bLac sens: -1

How did Cc1nn(-c2ccccc2)c2c1C(=O)N(Cc1ccccc1)C(=O)C(C)(C)C2 do in these assays?
Mtb H37Rv: -5%; RecA splice inh: 1.1; Arbovirus inh: -10; YopH PTP inh: -36; Mtb bLac sens: -6

What do the screens show for `CCC1=Nc2cc(C(=O)N3CCCCC3)ccc2Sc2ccc(C)cc21`?
RecA splice inh: 17; Mtb bLac sens: 4

How did CCCCn1c(N)c(N(CCOC)C(=O)c2ccc3c(c2)OCCO3)c(=O)[nH]c1=O do in these assays?
RecA splice inh: 1.0; Mtb bLac sens: -3

Results for Cc1ccc2sc(N(CCCN(C)C)C(=O)c3ccc(S(=O)(=O)N4CCc5ccccc5C4)cc3)nc2c1C ?
RecA splice inh: -2.0; Mtb bLac sens: -11

How did Cc1ccc(S(N)(=O)=O)cc1NC(=O)/C=C/c1cccs1 do in these assays?
Mtb H37Rv: 12%; RecA splice inh: 0.0; Arbovirus inh: 0; YopH PTP inh: -25; Mtb bLac sens: -7

Results for CCCC(C(=O)O)n1c(O)c(C=C2N=c3ccccc3=N2)sc1=S (stereo unspecified) ?
Mtb H37Rv: -13%; RecA splice inh: -3.0; Mtb bLac sens: -10

How did CCOC(=O)c1cc(S(=O)(=O)NCCc2ccccc2)cn1C do in these assays?
RecA splice inh: -2.4; Mtb bLac sens: -1

What do the screens show for `O=C(Nc1n[nH]c(C(F)(F)F)n1)C1CC1`?
Mtb H37Rv: -3%; RecA splice inh: -2.2; Arbovirus inh: -2; Mtb bLac sens: 6

Results for Cc1ccc(-n2c(C)nnc2SCC(=O)N2CCc3ccccc3C2)cc1 ?
Mtb H37Rv: 0%; RecA splice inh: 2.0; Arbovirus inh: 1; YopH PTP inh: -19; Mtb bLac sens: 1

Results for Cc1cc(NC(=O)CSc2c[nH]c3ccccc23)no1 ?
RecA splice inh: 5.0; Mtb bLac sens: -7

Results for O=C(Cc1cccs1)N1CCN=C1SCc1ccc(F)cc1 ?
Mtb H37Rv: -8%; RecA splice inh: 2.4; Arbovirus inh: -3; Mtb bLac sens: 2

What do the screens show for `Nc1cc(Cl)ccc1N1CCOCC1`?
Mtb H37Rv: 2%; RecA splice inh: -1.0; Arbovirus inh: 0; YopH PTP inh: -19; Mtb bLac sens: -5

What do the screens show for `CCOc1ccc(N=Nc2c(=O)[nH]n3c(=O)c4c([nH]c23)CCCC4)cc1`?
Mtb H37Rv: 63%; RecA splice inh: 0.3; Arbovirus inh: 60*; YopH PTP inh: -29; Mtb bLac sens: 90

How did CC(C)(C)c1ccc(C(=O)NCc2nnc(SCC(=O)NCC3CCCO3)o2)cc1 (stereo unspecified) do in these assays?
RecA splice inh: -0.3; Mtb bLac sens: inconclusive

How did Cc1cccc(-n2cnc3cc(C(=O)N4CCc5ccccc54)ccc32)c1 do in these assays?
Mtb H37Rv: 14%; RecA splice inh: 11; Arbovirus inh: -14; YopH PTP inh: -6; Mtb bLac sens: 49

How did Cc1cccc(NC(=O)c2ccccc2NC(=O)c2ccco2)c1 do in these assays?
RecA splice inh: -1.5; Mtb bLac sens: -13

How did CCOc1ccc(NC(=O)CSc2nc3ccccc3c(=O)n2CCCC(=O)NCC2CCCO2)cc1 (stereo unspecified) do in these assays?
RecA splice inh: 0.1; Mtb bLac sens: 4

Results for CCOC(=O)c1nn(-c2ccccc2Cl)c(=O)cc1OCC(=O)Nc1cccc(OC)c1 ?
RecA splice inh: -1.3; Mtb bLac sens: -8

What do the screens show for `CCOC(=O)C1=C(C)N=C2SC(C)C(=O)N2C1/C=C/c1ccccc1OC` (stereo unspecified)?
RecA splice inh: 6.8; Arbovirus inh: -5; YopH PTP inh: -40; Mtb bLac sens: -4

What do the screens show for `CCN(CC)C1CCN(C(=O)c2cc(COc3ccc(F)cc3Cl)on2)C1` (stereo unspecified)?
Mtb H37Rv: 5%; RecA splice inh: -2.1; Arbovirus inh: -10; Mtb bLac sens: -8

What do the screens show for `CCOC(=O)N1CCN(C(=O)c2cc3cc(Br)ccc3oc2=O)CC1`?
Mtb H37Rv: -7%; RecA splice inh: 0.4; Arbovirus inh: 13; YopH PTP inh: -41; Mtb bLac sens: -11; Arbovirus inh repeat: -2

How did C/C(=N\N=C1/NC(=O)C(C)S1)c1ccc([N+](=O)[O-])cc1 (stereo unspecified) do in these assays?
Mtb H37Rv: 8%; RecA splice inh: -0.8; Arbovirus inh: 14; YopH PTP inh: -28; Mtb bLac sens: 1

How did Cc1ccc(S(=O)(=O)N2CCCC2C(=O)NC2CCCCC2)cc1 (stereo unspecified) do in these assays?
Mtb H37Rv: -4%; RecA splice inh: 2.3; Arbovirus inh: 7; YopH PTP inh: -22; Mtb bLac sens: -18

How did Cc1cc(C)n(S(=O)(=O)c2cc(C)c(C)cc2C)n1 do in these assays?
Mtb H37Rv: -9%; RecA splice inh: 0.0; Arbovirus inh: -7; YopH PTP inh: -21; Mtb bLac sens: 0

How did CCOC(=O)CC(NS(=O)(=O)c1ccc(OC)c(C)c1)c1cccc([N+](=O)[O-])c1 (stereo unspecified) do in these assays?
Mtb H37Rv: -3%; RecA splice inh: 2.6; Arbovirus inh: 8; YopH PTP inh: -28; Mtb bLac sens: 6

What do the screens show for `CCOc1cc(/C=N\NC(=O)c2ccc(NC(=O)C(C)(C)C)cc2)ccc1OC(=O)c1ccc(C)cc1`?
Mtb H37Rv: 1%; RecA splice inh: 0.8; Arbovirus inh: -7; YopH PTP inh: -15

How did Cc1ccccc1CNc1nc(N)n(-c2ccccc2)n1 do in these assays?
Mtb H37Rv: -1%; RecA splice inh: 0.4; Arbovirus inh: 8; YopH PTP inh: 7; Mtb bLac sens: 13; Arbovirus inh repeat: -1

Results for O=C(O)/C(=C/c1ccco1)NC(=O)c1ccc(Br)o1 ?
RecA splice inh: -2.0; Mtb bLac sens: -2

What do the screens show for `COCCN1C(=O)C(=O)/C(=C(/O)c2ccc(S(=O)(=O)N3CCOCC3)cc2)C1c1ccc(OC)c(OC)c1` (stereo unspecified)?
RecA splice inh: -0.1; Mtb bLac sens: -7

Results for COc1cccc(/C=C/C(=O)OCC(=O)N2CCCc3ccccc32)c1 ?
RecA splice inh: 0.7; Mtb bLac sens: 1

What do the screens show for `CC(C)CC(=O)NC(=S)Nc1nc(-c2ccccc2)cs1`?
Mtb H37Rv: 14%; RecA splice inh: 5.2; Arbovirus inh: 6; YopH PTP inh: -28; Mtb bLac sens: 5

In the list so far, these have a cyano group.
How did CC1=C(C#N)C(NC(=O)C2CCCCC2)(C(F)(F)F)C(=O)N1 (stereo unspecified) do in these assays?
Mtb H37Rv: 2%; RecA splice inh: -0.5; Arbovirus inh: 2; YopH PTP inh: -11; Mtb bLac sens: -4

What do the screens show for `CCc1c(C)c(C#N)c2nc3ccccc3n2c1NCc1ccco1`?
Mtb H37Rv: 6%; RecA splice inh: -38; Arbovirus inh: -1; YopH PTP inh: -13; Mtb bLac sens: 36
